# Measles inh = inhibitors of measles virus growth in infected cells. z-score (test concentration not listed). infected Vero cells, GFP fluorescence, 64 h; hits give low values. 33,000 compounds, 0.1% hits. AID 745;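 active = z-score under -3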;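 note: score is relative to mean and SD of the compound wells of a plate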
# * marks the source's active call; other numbers are inactive results. These rows are one share of the data; rates above refer to the full screens.
SMILES,Measles inh
CCOC(=O)C1=C(C)NC2=C(C(=O)C(C(=O)OCC)C(c3ccccc3OC)C2)C1c1cccc([N+](=O)[O-])c1 (configuration not stated),-0.39
COc1ccc(NC(=O)Cc2c(C(=O)O)[nH]c3ccc(Cl)cc23)c(OC)c1,-0.72
Cc1ccc2nc(-c3cccnc3)c(Nc3ccccc3)n2c1,-0.17
CCN(CC)C(=O)CN(c1ccc(C)cc1)S(=O)(=O)c1ccc(OC)cc1,-0.27
COc1cccc(CNC(=O)CCS(=O)(=O)c2ccc3c(c2)CC(C)N3C(C)=O)c1 (configuration not stated),0.97
CCSc1nnc(NC(=O)NC(=O)c2ccc(C(F)(F)F)cc2)s1,0.01
Cc1noc(C)c1S(=O)(=O)Nc1ccccc1Cl,1.5
O=C(NCCOc1ccccc1)c1cc(-c2ccccc2)nc2ccc(I)cc12,1.3
COc1cc2ccccc2cc1C(=O)Nc1nc2ccccc2s1,-0.59
Cc1ccc(-n2cnc3cc(Nc4nnc(C)c5ccccc45)ccc32)cc1,-0.03
COc1ccc(NC(=O)c2cnn3c2NC(c2ccco2)CC3C(F)(F)F)cc1Cl (configuration not stated),0.3
Brc1cccc(C2=CC(c3cccs3)n3c(nc4ccccc43)N2)c1 (configuration not stated),0.08
COc1ccc(C2SCCN2S(=O)(=O)c2ccc(I)cc2)cc1 (configuration not stated),0.41
Cn1cc(C=Cc2nc3ccccc3c(=O)n2-c2ccc([N+](=O)[O-])cc2)c2ccccc21,-0.32
Cc1ccc(-n2cc(-c3ccccc3)c3c(N4CCCC4)ncnc32)cc1,1.4
Cc1cc2c(cc1C)NC(CC(=O)Nc1ccc(N(C)C)cc1)C(=O)N2 (configuration not stated),-1.8
COC(=O)c1ccc(NC(=O)CN2CCCN(S(=O)(=O)c3ccc(OC)cc3)CC2)cc1,-0.25
Cc1ccc(S(=O)(=O)N2N=C(c3ccccc3)CC2c2ccc(Cl)cc2)cc1 (configuration not stated),0.6
CSc1cccc(NC(=O)c2cc3c(ccc4ccccc43)o2)c1,0.71
CCOC(=O)Cc1csc(NC(=O)CCC2CCCCC2)n1,-0.68
Cc1cc(N2CCCCC2)nc2ccc(NC(=O)c3ccc(Cl)c([N+](=O)[O-])c3)cc12,-0.54
CC(C)CCNC(=O)c1cccc(-n2c(=S)[nH]c3cc(Cl)ccc3c2=O)c1,-2.4
NC(=O)COc1ccccc1C(=O)NC12CC3CC(CC(C3)C1)C2,-0.89
O=C(Nc1nc(-c2ccccc2)c(-c2ccccc2)s1)c1ccc(S(=O)(=O)N2CCOCC2)cc1,-0.41
Cc1ccccc1OCC(=O)OCC(=O)c1ccc(Br)cc1,-1.1

# 15 neighbouring records from above, for reference:
SMILES,Measles inh
CCOC(=O)C1=C(C)NC2=C(C(=O)C(C(=O)OCC)C(c3ccccc3OC)C2)C1c1cccc([N+](=O)[O-])c1 (configuration not stated),-0.39
COc1ccc(NC(=O)Cc2c(C(=O)O)[nH]c3ccc(Cl)cc23)c(OC)c1,-0.72
Cc1ccc2nc(-c3cccnc3)c(Nc3ccccc3)n2c1,-0.17
CCN(CC)C(=O)CN(c1ccc(C)cc1)S(=O)(=O)c1ccc(OC)cc1,-0.27
COc1cccc(CNC(=O)CCS(=O)(=O)c2ccc3c(c2)CC(C)N3C(C)=O)c1 (configuration not stated),0.97
CCSc1nnc(NC(=O)NC(=O)c2ccc(C(F)(F)F)cc2)s1,0.01
Cc1noc(C)c1S(=O)(=O)Nc1ccccc1Cl,1.5
O=C(NCCOc1ccccc1)c1cc(-c2ccccc2)nc2ccc(I)cc12,1.3
COc1cc2ccccc2cc1C(=O)Nc1nc2ccccc2s1,-0.59
Cc1ccc(-n2cnc3cc(Nc4nnc(C)c5ccccc45)ccc32)cc1,-0.03
COc1ccc(NC(=O)c2cnn3c2NC(c2ccco2)CC3C(F)(F)F)cc1Cl (configuration not stated),0.3
Brc1cccc(C2=CC(c3cccs3)n3c(nc4ccccc43)N2)c1 (configuration not stated),0.08
COc1ccc(C2SCCN2S(=O)(=O)c2ccc(I)cc2)cc1 (configuration not stated),0.41
Cn1cc(C=Cc2nc3ccccc3c(=O)n2-c2ccc([N+](=O)[O-])cc2)c2ccccc21,-0.32
Cc1ccc(-n2cc(-c3ccccc3)c3c(N4CCCC4)ncnc32)cc1,1.4

# Carrying on:
SMILES,Measles inh
COc1cc(NS(=O)(=O)c2ccc(NC(=O)CN3C(=O)c4ccccc4C3=O)cc2)ncn1,-0.53
O=C(C1CCN(S(=O)(=O)c2cccs2)CC1)N1CCCCCC1,-0.05
Cc1ccc(C(=O)CSc2nc3sc(C)c(C)c3c(=O)[nH]2)cc1C,-0.04
CCOc1ccc2[nH]c(C)c(CN3CCCCC3)c(=O)c2c1,-0.08
COc1ccc(-n2c(N)c(C#N)c(C#N)c2-c2cccc([N+](=O)[O-])c2)cc1,-0.46
Nc1c(C(=O)Nc2ccccc2C(=O)O)sc2nc3c(cc12)CCCCCC3,0.33
c1ccc(-c2nc(N3CCCCCC3)c3ccccc3n2)cc1,-0.48
Cc1ccccc1CN1CCN(C(=O)c2ccncc2)CC1,-0.74
Cc1ccc(CNC(=O)CNC(=O)c2ccco2)cc1,0.33
CCC(C)C(NCc1cccc(Br)c1)C(=O)O (configuration not stated),-0.32
Cc1ccc(-c2csc(NC(=O)COc3cc(C)ccc3C(C)C)n2)cc1,0.19
Cc1ccc(C(=O)C2C(c3cccc(Oc4ccccc4)c3)NC(=O)NC2(O)C(F)(F)F)cc1 (configuration not stated),0.13
COc1ccc2cc(-c3csc(Nc4ccc(F)cc4)n3)c(=O)oc2c1,-0.28
CCOc1cccc2cc(C(N)=O)c(=Nc3ccccc3C)oc12,-0.39
Cc1ccc(CNC(=O)C(NS(=O)(=O)c2cccs2)C(C)C)cc1 (configuration not stated),-1.6
Cc1ccc(-n2ncc3c(=O)[nH]c(SCC(=O)c4ccccc4)nc32)cc1C,0.31
CCOC(=O)Cn1c(=N)n(CCOc2ccc(C(C)(C)C)cc2)c2ccccc21,-0.2
CC1CCC(NC(=O)CCCCCn2c(=S)[nH]c3ccc(Br)cc3c2=O)CC1 (configuration not stated),0.16
NS(=O)(=O)c1ccc2nc(NC(=O)c3cc(-c4ccccc4)nc4ccccc34)sc2c1,-1.6
COc1cccc(Oc2cc([N+](=O)[O-])cc3c2C(=O)Nc2ccccc2O3)c1,4.8
O=C(c1cccn2c(=O)c3c4c(sc3nc12)CCCC4)N1CCc2ccccc2C1,0.47
CC1=C(C(=O)OCc2ccccc2)C(c2ccc(F)cc2)NC(=O)N1 (configuration not stated),-0.02
O=C1CSC(c2cc3c(cc2[N+](=O)[O-])OCO3)N1c1ccc(Cl)cc1 (configuration not stated),-0.95
COc1ccc(C2=NN(C(=O)CCC(=O)O)C(c3ccc(Cl)cc3)C2)cc1OC (configuration not stated),-0.15
O=C1CCCc2c1cc(C(=O)Nc1cccc([N+](=O)[O-])c1)c(=O)n2-c1ccccc1,-0.12

# Continuation:
SMILES,Measles inh
CCCCOC(=O)c1c(N)n(-c2cc(OC)ccc2OC)c2nc3ccccc3nc12,-0.67
CC(=O)C1=C(O)C(=O)N(c2nc3ccccc3s2)C1c1ccc(C(C)C)cc1 (configuration not stated),-0.9
CCC(C(=O)Nc1cccc([N+](=O)[O-])c1)(C(F)(F)F)C(F)(F)F,-1.2
CCC1Oc2ccc(C)cc2N(CC(=O)NCCC2=CCCCC2)C1=O (configuration not stated),1
O=C(NCc1cccs1)C1CCCN(c2nc3ccccc3o2)C1 (configuration not stated),-0.29
O=C(NCC1CCCO1)C1c2ccccc2C(=O)N1Cc1ccccc1Cl (configuration not stated),-1.4
O=C(CCn1c(=S)[nH]c2ccccc2c1=O)NCC1COc2ccccc2O1 (configuration not stated),0.92
Cc1ccccc1Oc1cc(NC(=O)CCCn2nc(C)c([N+](=O)[O-])c2C)cc([N+](=O)[O-])c1,0.22
O=C(CSc1n[nH]c(-c2ccco2)n1)N1CCOCC1,1.7
Cc1c(C(=O)NC(C)C)sc2ncnc(N3CCCCC3C)c12 (configuration not stated),1.1
COc1ccc(-n2nc(C(=O)NCC(=O)N3CCCC(C)C3)c3ccccc3c2=O)cc1 (configuration not stated),-0.62
CCOc1ccc(C2C(C(=O)Nc3ccccn3)=C(C)NC3=C2C(=O)CC(C)(C)C3)cc1 (configuration not stated),-0.4
COCCNc1nc(=O)[nH]nc1C,0.03
O=C(CSc1nnc(-c2ccncc2)n1Cc1ccccc1)c1cccc([N+](=O)[O-])c1,-0.17
COc1ccccc1CNC(=O)c1ccc2c(=O)n(-c3cccc(C(F)(F)F)c3)c(=S)[nH]c2c1,-0.7
CC(C)COC(=O)C1C2C=CC3(CN(C(C)c4ccccc4)C(=O)C13)O2 (configuration not stated),1.5
CCN(CCNC(=O)c1cccc(N2CCCC2=O)c1)c1ccccc1,0.32
c1cncc(-c2cnc3ccccc3n2)c1,-0.28
Cc1cccc(Nc2ncnc3c2cnn3C)c1,0.08
CC(Nc1cc(=O)n(C)c(=O)[nH]1)c1ccccc1 (configuration not stated),-0.68
CCOc1ccccc1NC(=O)c1sc2ncnc(N(C)c3ccccc3)c2c1C,-1.5
Cc1cc(=O)[nH]c(NCCO)n1,0.64
CCC(CC)C(=O)Nc1c2c(nn1-c1cccc(C)c1C)CS(=O)C2 (configuration not stated),0.61
Cc1ccc(/C(O)=C2\C(=O)C(=O)N(CCCN(C)C)C2c2ccccc2F)cc1 (configuration not stated),-1.2
Oc1ccc(N=Cc2ccc(Br)cc2)cc1,-1.5

# Additional compounds follow.
SMILES,Measles inh
CCCC(=O)N1CCN(c2cc(N3CCC(C)CC3)c(F)cc2[N+](=O)[O-])CC1,-0.95
O=C(Nc1cccc(Cl)c1)C1C2C=CC3(O2)C1C(=O)N(CCC1=CCCCC1)C3C(=O)NC1CCCCC1 (configuration not stated),-0.85
COC(=O)C1C(=O)CC(C)(O)C(C(=O)OC)C1c1cccc(F)c1 (configuration not stated),-0.44
Cc1cc(-c2ccccc2)nc2cc(-c3ccc(Cl)cc3)nn12,2
N=C1SCC(=O)N1c1ccccc1Cl,2.5
CCOC(=O)c1ccccc1NC(=O)CCc1nc(-c2ccc(C)cc2)no1,0.34
O=C(Nc1sc2c(c1C(=O)Nc1ccccc1)CCCCC2)c1cccnc1,-1.1
COC(=O)c1ccccc1NC1=CC(=NS(=O)(=O)c2ccc(C(C)(C)C)cc2)c2ccccc2C1=O,-1.4
O=C(NC1CCCCCCC1)c1ccc(N2CC3CC(C2)c2cccc(=O)n2C3)c(NS(=O)(=O)c2ccc(F)cc2)c1 (configuration not stated),-0.91
CCOC(=O)c1sc(=S)n(-c2cccc(C(F)(F)F)c2)c1N,-0.64
O=C(CCc1ccccc1)Nc1cc(Cl)ccc1C(=O)O,-1.1
Cc1ccc(NC(=O)c2cc(S(=O)(=O)N3CCN(c4cccc(C)c4C)CC3)ccc2F)cc1C,-0.17
CC1CCN(S(=O)(=O)N2CCCC(C(=O)NC3CCCCC3C)C2)CC1 (configuration not stated),-0.54
CCOC(=O)C1CCCN(C(=O)Cn2cnc3sc4c(c3c2=O)CCCC4)C1 (configuration not stated),-0.27
Cc1ccc(S(=O)(=O)NC(=O)Nc2ccc(F)cc2)cc1,0.76
COc1ccccc1N1C(=O)C2C3CC4C5(C)CCCC(C)(C(=O)O)C5CCC4(C=C3C(C)C)C2C1=O (configuration not stated),0.24
O=C(O)C1CCCCC1C(=O)N(Cc1ccccc1)Cc1ccccc1 (configuration not stated),0.35
O=C(Cc1ccccc1)Nc1ccccc1C(=O)O,0.51
COc1ccc(C(=O)CC(=O)C(=O)Nc2ccc(Cl)cc2)cc1,0.33
O=C1C2=C(Nc3[nH]c(=O)[nH]c(=O)c3C2c2ccc(Br)cc2)c2ccccc21 (configuration not stated),0.12
O=C(c1cc(-c2ccc(Cl)cc2)on1)N1CCOCC1,-1.6
Cc1cc(Cl)ccc1NC(=O)C(=O)NCc1ccncc1,0.58
O=S(=O)(c1ccc(-c2csc(Nc3ccc(Br)cc3)n2)cc1)N1CCCC1,1.5
COCCN1C(=O)c2ccccc2C(C(=O)N2CCN(c3ccc([N+](=O)[O-])cc3)CC2)C1c1cn(C)c2ccccc12 (configuration not stated),-0.13
C=CCn1c(SCc2ccc(Cl)cc2)nc2cc(C(=O)NCc3ccco3)ccc2c1=O,0

# The list goes on.
SMILES,Measles inh
O=C(Cn1c2ccccc2c(=O)c2ccccc21)NCc1ccco1,0.49
O=C(O)C1CC(O)CN1S(=O)(=O)c1cccc2nsnc12 (configuration not stated),1.3
Cc1cccc(N2CCN(C(=O)c3ccc(SCCN4CCOCC4)c([N+](=O)[O-])c3)CC2C)c1 (configuration not stated),-1.1
O=C(O)CCc1nc2ccccc2oc1=O,-0.1
Cc1cc(C(=O)Nc2nc3ccc(S(C)(=O)=O)cc3s2)ccc1[N+](=O)[O-],-0.71
CCCS(=O)(=O)c1c(S(=O)(=O)CCC)c2c(N)cccn2c1C(=O)c1ccc(C)cc1,-0.51
COc1ccc2nc(C)cc(Nc3ccc(Cl)cc3)c2c1,-1.1
OC(c1ccc(F)cc1)(c1ccc(F)cc1)c1cccnc1N1CCCCC1,-0.27
O=S(=O)(Cc1ccccc1)c1ccc(Cl)cc1,-0.29
CCN(c1ccccc1)S(=O)(=O)c1ccc2[nH]cc(C(=O)NC3CCCCC3)c(=O)c2c1,-2.1
Cc1ccccc1NC(=O)C(NS(=O)(=O)c1cccs1)C(C)C (configuration not stated),0.67
CCc1cccc(NC(=O)c2cc3cc4ccc(C)cc4nc3s2)c1,0.15
CCOc1ccc2c(c1)-c1c(sn(-c3ccc(Br)cc3)c1=S)C(C)(C)N2,-0.97
O=C1CSC(c2ccccc2Br)N1c1cc(Cl)ccc1O (configuration not stated),-0.52
O=S(=O)(c1ccc(Cl)cc1)N1CCN(Cc2ccccc2C(F)(F)F)CC1,-1.2
Cc1ccc(S(=O)(=O)NCC(Nc2cccc(Cl)c2)c2ccccc2)cc1 (configuration not stated),0.33
O=C(NC1CCCCCC1)C1c2ccccc2C(=O)N1CCCN1CCOCC1 (configuration not stated),-0.38
COc1ccc2cc(S(=O)(=O)NCCC34CC5CC(CC(C5)C3)C4)ccc2c1,-0.89
Cc1n[nH]c(C)c1S(=O)(=O)N1CCC(C(=O)N(C)Cc2ccccc2)CC1,1.5
